# Polio RdRp inh = inhibitors of poliovirus RNA polymerase binding and polymerization | P03300 | % elongation, % (compound at 16.7 µg/mL) | poliovirus polymerase elongation, fluorescence polarization; hits give low values | 150,000 tested, 0.66% active; in the data active = % elongation below about 90%; also: some results filed as inactive read as strong as hits
# Target sequence (P03300 1749-2209 limits assumed): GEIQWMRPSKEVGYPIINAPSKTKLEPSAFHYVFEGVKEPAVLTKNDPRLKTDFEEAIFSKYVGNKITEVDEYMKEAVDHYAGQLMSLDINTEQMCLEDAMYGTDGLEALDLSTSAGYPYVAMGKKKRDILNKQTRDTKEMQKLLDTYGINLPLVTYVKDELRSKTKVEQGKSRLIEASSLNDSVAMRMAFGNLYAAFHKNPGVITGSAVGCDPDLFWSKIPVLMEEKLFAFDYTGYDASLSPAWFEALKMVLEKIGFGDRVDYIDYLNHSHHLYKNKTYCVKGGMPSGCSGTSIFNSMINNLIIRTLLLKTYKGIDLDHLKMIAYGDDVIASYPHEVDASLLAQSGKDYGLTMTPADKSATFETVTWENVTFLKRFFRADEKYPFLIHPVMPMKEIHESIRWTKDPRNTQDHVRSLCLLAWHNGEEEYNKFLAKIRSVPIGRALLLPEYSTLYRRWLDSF
# Mtb MenB inh = inhibitors of Mycobacterium tuberculosis MenB enzyme | P9WNP5 | MenB enzyme assay, absorbance read-out; some hits fall short of the stated cut | inhibition, %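 (about 12 µg/mL by stock and volumes)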 | 100,000 tested, 0.43% active | AID 540299;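 active = mean of two replicates above 30%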;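 also: 0% = no compound and 100% = wells with inactive enzyme; the first replicate is given; strong numbers were not always called active; inactives centre near -10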
# MbtI inh = MbtI salicylate synthase inhibition; purified MbtI enzyme, fluorescence intensity read-out; inhibition, %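 (about 17 µg/mL by stock and volumes)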; 100,000 tested, 0.89% active; AID 493033;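 active = above 50% in both replicates, above 80% if mildly self-fluorescent; inactive = the rest, strongly fluorescent compounds included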;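 also: 0% = mean of negative and 100% = mean of positive controls; one replicate is shown; some compounds called inactive have numbers as strong as hits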
# Target sequence (P9WFX0 whole entry, looked up): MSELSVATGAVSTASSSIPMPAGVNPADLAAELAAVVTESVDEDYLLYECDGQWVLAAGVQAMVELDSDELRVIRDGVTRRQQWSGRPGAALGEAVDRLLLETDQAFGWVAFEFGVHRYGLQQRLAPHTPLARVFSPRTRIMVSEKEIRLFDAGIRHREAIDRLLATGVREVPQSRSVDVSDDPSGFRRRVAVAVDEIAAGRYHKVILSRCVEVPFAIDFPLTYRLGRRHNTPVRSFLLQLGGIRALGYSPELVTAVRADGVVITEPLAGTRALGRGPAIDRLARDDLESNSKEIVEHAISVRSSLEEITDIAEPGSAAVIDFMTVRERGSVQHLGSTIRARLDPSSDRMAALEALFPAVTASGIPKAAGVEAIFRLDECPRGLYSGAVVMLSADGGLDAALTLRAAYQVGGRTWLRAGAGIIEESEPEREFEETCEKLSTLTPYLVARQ
# Polio RdRp inh intensity = further read-out of Polio RdRp inh, marked with its call; % elongation; measured here: total intensity read-out; formula for this scale not given here;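 total fluorescence in place of polarization; lower means less elongation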
# The depositor's hits bear a star; i = inactive; . = no result given.
SMILES,Polio RdRp inh,Polio RdRp inh intensity,Mtb MenB inh,MbtI inh
O=C(OC1CCCCC1)c1nsc(Cl)c1Cl,102,105,-29,-10
O=C(CNCc1ccco1)Nc1ccccc1C(=O)c1ccccc1,93,97,14,-4
Cc1noc(-c2ccc3c(c2)OCO3)c1I,107,111,-13,.
O=C1NC(c2ccccc2)Oc2ccccc21 (configuration not stated),101,99,22,-12
O=C(O)CCC(=O)Nc1cccc(F)c1,104,109,-14,-8
O=C(NCCc1ccccc1)c1ccc2nc(-c3cccs3)c(-c3cccs3)nc2c1,104,107,-27,0
Cc1ccc2[nH]c(=O)cc(C(=O)O)c2c1,104,98,-32,-78
c1ccc(-c2noc(CSc3nnc(-c4ccco4)n3-c3ccccc3)n2)cc1,100,101,-27,-3
Cc1ccc(/C=N/c2sc3c(c2C(N)=O)CCC3)s1,102,103,.,-1
COC(=O)c1cc2c(cc1NC(=O)c1cccc3c1SCCC3=O)OCO2,105,104,-19,-6
Cc1ccc(-c2noc(CN(C(C)C)S(=O)(=O)c3ccc(F)cc3)n2)cc1,104,100,-22,-10
c1ccc(-n2nnnc2NC2CCCCCC2)cc1,100,102,20,-3
CS(=O)(=O)c1nc2ccccc2n1Cc1ccccc1,100,104,.,-3
CCN(CC)Cc1cc(C(C)(C)C)oc1C(=O)O,95,102,-4,.
CCc1cccc(C)c1NC(=O)C(C)C,106,101,-21,-8
COc1cc(/C=C/C(=O)Nc2ccc(S(=O)(=O)N3CCCC3)cc2)cc(OC)c1OC,101,100,-24,11
CC1=C(NN(C)c2cccc(Cl)c2)C(=O)N(C2CCCCC2)C1,100,105,-28,.
CC1(C)OC(=O)C1C(=O)O (configuration not stated),102,106,.,-16
O=C(OCCCCN1C(=O)c2ccccc2C1=O)c1ccc(Br)o1,.,.,-13,22
COC(=O)c1c[nH]n2c(=O)cc(C3CCNCC3)nc12,100,103,6,2
O=C1CC(c2ccccc2)Cc2nc(N3CCc4ccccc43)ncc21 (configuration not stated),101,102,-6,-13
O=C(NC1CCN(Cc2ccccc2)C1)c1nn(-c2ccccc2)c(=O)c2ccccc12 (configuration not stated),103,97,0,-4
Cc1ccc(N=Cc2ccc(F)c(F)c2)cc1C,105,108,.,-13
CC/C(=N\NC(=O)c1cccnc1)c1cc(F)ccc1O,129,158,-76,3
CS(=O)c1scc2c1C(=O)CC(C)(C)C2 (configuration not stated),104,101,9,0
Cc1ccc(C(=O)OCC(=O)NC2CCCC2)cc1,107,102,-31,3
CN1CCCc2cc(C#N)c(=O)[nH]c21,102,103,-53,116
Cc1ccc2c(c1)N(C(=O)CN1C=NS(=O)(=O)c3ccccc31)CCO2,100,98,11,2
N#CC(C#N)=CNc1c(F)cccc1Cl,101,101,-11,-6
CCc1noc(C)c1C(=O)Nc1ccc(OC(F)F)cc1,100,109,-1,-9
CCOC(=O)COc1ccc2c(c1)C(=O)CC1(CCN(C(C)=O)CC1)O2,100,101,8,127
O=C(CSc1nc2ccccc2[nH]1)Nc1ccccc1Br,104,99,-3,.
CC1CCCN(C2CCN(Cc3ccccc3Cl)CC2)C1 (configuration not stated),98,92,-3,-20
CCOc1cc(C(=O)O)ccc1OCCOc1ccccc1,103,106,-8,8
O=C(O)CCc1nc2ccccc2c(=O)n1Cc1ccc2c(c1)OCO2,101,94,-31,-16
CC1=NNC(=O)C1C(c1ccccc1)C1C(=O)NN=C1C (configuration not stated),102,102,-56,-32
CC1CCCCN1C(=O)CCS(=O)(=O)Cc1ccccc1 (configuration not stated),100,101,-23,0
S=c1[nH]nc(NCCCN2CCOCC2)s1,96,100,-19,97*
Cc1nn(-c2ccccc2)c(N2CCCC2)c1/C=N/NC(=O)Cn1ccc(C(F)(F)F)n1,98,105,-11,0
Cn1c(O)c(C2=c3ccccc3=NC2=O)[nH]c1=S,99,101,-33,1
CCS(=O)(=O)N1CCN(c2ccc(C)cc2)C(C)C1 (configuration not stated),102,104,-3,-17
COC(=O)C1(O)CC(=O)c2ccccc2O1 (configuration not stated),101,106,19,.
O=C(Cn1ccccc1=O)c1ccc(Cl)cc1,104,101,-20,5
COCC(C)n1c(C)cc(C(=O)COC(=O)c2c(OC)cccc2OC)c1C (configuration not stated),105,110,-4,-5
O=C(CSc1nc2ccccc2o1)Nc1ccc(Oc2ccccc2)cc1,102,98,-30,37
O=C(c1ccccc1)c1ccccc1C(=O)N1CCCC1,102,103,-10,-1
O=C(c1ccc2nc3ccc(Cl)cc3c(=O)n2c1)N1CCCCCC1,102,105,-8,-17
Nc1nonc1NC(=O)CSC1=NCCS1,109,112,-6,.
O=C(CN1C(=O)C2C3C=CC(C3)C2C1=O)NCCc1ccccc1 (configuration not stated),99,102,0,-3
CN1CCN(CCSc2ccc(Cl)cc2)CC1,98,92,6,3

# In another format: entries from further up.
structure | Polio RdRp inh | Polio RdRp inh intensity | Mtb MenB inh | MbtI inh
CCS(=O)(=O)N1CCN(c2ccc(C)cc2)C(C)C1 (configuration not stated) | 102 | 104 | -3 | -17
COC(=O)C1(O)CC(=O)c2ccccc2O1 (configuration not stated) | 101 | 106 | 19 | .
O=C(Cn1ccccc1=O)c1ccc(Cl)cc1 | 104 | 101 | -20 | 5
COCC(C)n1c(C)cc(C(=O)COC(=O)c2c(OC)cccc2OC)c1C (configuration not stated) | 105 | 110 | -4 | -5
O=C(CSc1nc2ccccc2o1)Nc1ccc(Oc2ccccc2)cc1 | 102 | 98 | -30 | 37
O=C(c1ccccc1)c1ccccc1C(=O)N1CCCC1 | 102 | 103 | -10 | -1
O=C(c1ccc2nc3ccc(Cl)cc3c(=O)n2c1)N1CCCCCC1 | 102 | 105 | -8 | -17

# (listing goes on)
SMILES,Polio RdRp inh,Polio RdRp inh intensity,Mtb MenB inh,MbtI inh
CC(C)(C)c1ccc2c(c1)CN(C1CCCCC1)CO2,102,100,-6,-6
CCOC(=O)c1c(Nc2nc(-c3cc4ccccc4o3)cs2)sc(C)c1C,100,97,5,29
CC1=Nc2cc(C(=O)NCc3ccc(C)cc3)ccc2Sc2ccccc21,104,109,-15,-6
O=C(NC1=NN(c2ccccc2)CC1)Nc1ccccc1F,100,106,4,94
CCN1C(=O)/C(=C2\SC(=S)N(C(C)C)C2=O)c2ccccc21,99,99,-33,-10
Cc1sc2nc(CC#N)[nH]c(=O)c2c1C,107,110,.,3
CCCn1c(CNC(=O)CC)nc2ccccc21,98,98,-5,15
Cc1ccccc1C(=O)NNC1=NCCC1,105,102,15,7
CN(C)S(=O)(=O)c1cccc(C(=O)N2CCc3ccccc3C2)c1,103,100,.,-9
Cc1cccc(Nc2cc(=O)[nH]c(=O)[nH]2)c1C,109,109,-26,.
COc1ccc(C2C(C(=O)N3CCN(c4ccc(F)cc4)CC3)CCC(=O)N2c2ccc(OC)cc2)cc1 (configuration not stated),102,103,-10,-3
Cc1noc(C)c1CCNC(=O)C1CCN(c2ccccc2)C1=O (configuration not stated),100,102,15,-8
COc1ccc(CC(N)C(=O)N[C@@H]2C(O)[C@H](n3cnc4c(N(C)C)ncnc43)O[C@@H]2CO)cc1 (some centres not stated),101,99,-10,4
O=C(COC(=O)c1ccc(Cl)cc1NC(=O)c1ccc(Cl)cc1)c1ccccc1,102,99,1,-8
Cc1ccc(OCC(=O)NN)cc1,101,102,9,7
CCOc1ccc2oc(=O)cc(CN(C)Cc3ccccc3)c2c1,100,101,-9,12
CC(C)(C)c1ccc(NC(=O)c2ccc(C(C)(C)C)s2)cc1,106,114,-36,-4
CCCCC(C(N)=O)C1=NC(C)(C)Cc2ccccc21 (configuration not stated),103,106,-14,12
COc1cc2c3c(c1OC)C1(C=CC(=O)C=C1)CC3NCC2 (configuration not stated),100,103,-9,26
Cn1cccc1C(=O)OCC(=O)C12CC3CC(CC(C3)C1)C2,105,109,-9,-7
Oc1[nH]c2ccccc2c1C=Nc1cccc(Cl)c1,100,102,-84,-4
COc1ccc(-c2[nH]ncc2C(=O)NCCC(C)C)cc1,100,104,2,-3
Cc1cc(C)n2cc(CN)nc2n1,101,97,.,i
CC12CCC(c3c(COC(=O)c4ccco4)nn(-c4ccccc4)c31)C2(C)C (configuration not stated),99,101,-11,-3
O=C(Cn1ccn(-c2cccc3ccccc23)c(=O)c1=O)NCc1ccco1,100,98,-17,-4
CCCNC(=O)c1ccc(CN2CC(=O)N3CCCCC3C2=O)cc1 (configuration not stated),108,99,-21,0
CCN(CC)S(=O)(=O)c1cccc(C(=O)Oc2cccnc2)c1,101,100,-8,0
Cc1ccc(Cn2nc(C)c(/C=C/C(=O)Nc3nnc(C4CC4)s3)c2C)cc1,103,101,-21,8
CCOC(=S)SCc1cn2ccc(C)cc2n1,103,105,-14,-3
O=C1NC(=S)S/C1=C\C=C\c1ccccc1,106,106,-76,.
COc1ccc(NC(=O)c2ccccn2)cc1OC,101,105,-36,23
COCCn1nnnc1CN1CCC(Cc2ccccc2)CC1,99,100,-6,-6
COc1ccc(-n2c(C)cc(/C=C3/C(=O)NC(=O)N(Cc4ccco4)C3=O)c2C)cc1,96,105,-149,4
COc1cc(-c2nnc(COC(=O)c3ccc(-n4nc(C)cc4C)cc3)o2)cc(OC)c1OC,102,97,-30,-16
O=C(c1cc2ccccc2oc1=O)N(Cc1ccc(F)cc1)Cc1ccco1,102,101,9,15
Fc1ccc(CNC2CC2)cc1,102,101,-4,1
CCC1(C)NC(=O)N(/N=C/c2cccs2)C1=O (configuration not stated),103,103,-19,15
Cc1cc(-c2ccccc2)nc(=O)[nH]1,98,123,-33,-2
COCc1cc(C)nc2sc(C(=O)Nc3ccc(N4CCOCC4)cc3)c(N)c12,101,102,-19,-4
O=C(CC1C(=O)N(c2ccccc2)C(=S)N1NC(=O)c1ccncc1)NCCc1ccccc1 (configuration not stated),100,93,-5,.
CN(C)Cc1c2ccccc2cc2ccccc12,101,95,.,i
CC(=O)Oc1ccc(C(=O)NC2CCSC2=O)cc1 (configuration not stated),103,99,-20,-15
O=C(O)c1cc(Cl)ccc1S(=O)c1ccccc1CO (configuration not stated),101,101,-34,4
CC(C)Cn1cc(NC(=O)N2CCN(c3ccccc3)CC2)c2ccccc2c1=O,98,102,0,-20
O=C(NCc1ccco1)c1ccc(Cn2c(SCc3ccccc3)nc3ccncc32)cc1,104,109,-10,-2
Cc1ccc(OC(=O)c2sc3nc(-c4ccc(Cl)cc4)nn3c2C)cc1,106,110,0,2
CC1CC(C)CN(C(=O)COC(=O)c2ccc(Cl)cc2)C1 (configuration not stated),101,103,-2,-6
COCCC(=O)C1=CSC2=C(C(=O)CC(C)(C)C2)C1c1ccncc1 (configuration not stated),101,107,-77,.
O=C(c1cccc(Br)c1)N1CCc2ccccc2C1,93,93,9,.
CC(C)CCNC(=O)C1c2ccccc2Oc2ccccc21,100,99,-12,0

# Compounds above with an aryl thioether with sulfur outside any ring:
SMILES,Polio RdRp inh,Polio RdRp inh intensity,Mtb MenB inh,MbtI inh
c1ccc(-c2noc(CSc3nnc(-c4ccco4)n3-c3ccccc3)n2)cc1,100,101,-27,-3
O=C(CSc1nc2ccccc2[nH]1)Nc1ccccc1Br,104,99,-3,.
O=C(CSc1nc2ccccc2o1)Nc1ccc(Oc2ccccc2)cc1,102,98,-30,37
CN1CCN(CCSc2ccc(Cl)cc2)CC1,98,92,6,3
O=C(NCc1ccco1)c1ccc(Cn2c(SCc3ccccc3)nc3ccncc32)cc1,104,109,-10,-2

# Next results
SMILES,Polio RdRp inh,Polio RdRp inh intensity,Mtb MenB inh,MbtI inh
CCOC(=O)Cn1c2[n+](c3ccccc31)CC(O)CS2 (configuration not stated),102,102,-27,-20
CC1CC(C)CN(C(=O)CCNS(=O)(=O)c2ccc3[nH]c(=O)ccc3c2)C1 (configuration not stated),103,103,-4,93
Cc1cccc(OCC(O)CN2CC3(C)CC2CC(C)(C)C3)c1 (configuration not stated),95,96,0,-23
N#CC(c1cccc(C(F)(F)F)c1)c1cccc(C(F)(F)F)c1,101,102,3,-14
COc1ccccc1C(=O)CSc1ccc(Cl)cc1,101,97,.,11
Cc1cc(-n2c(C)cc(CNC(C)c3cccs3)c2C)no1 (configuration not stated),97,100,2,-7
Cc1cc(F)ccc1S(=O)(=O)Nc1ccc2oc(C)c(C(=O)OC(C)C)c2c1,98,102,1,0
Cn1c(-c2ccc3c(c2)OCO3)cc(=O)c2ccccc21,98,102,1,-28
COc1cc(C(=O)O)ccc1OC(C)C,102,104,.,0
COc1ccc(/C=C(/Sc2n[nH]c(C)n2)C(=O)O)cc1OC,98,94,-5,14
CC(=O)Nc1ccc(C=C(C#N)C#N)cc1,99,101,-41,5
CN1C(=O)c2ccccc2C(C(=O)O)C1c1cccc(F)c1 (configuration not stated),103,103,-6,-7
COC(=O)CC1c2cc(OC)c(OC)cc2CCN1C(=O)c1cccc(C#N)c1 (configuration not stated),103,107,-4,-12
O=C1NC2=C(C(=O)NNC2)C(c2cccs2)N1 (configuration not stated),101,94,13,29
Cc1cccc(-c2noc(CN(C(=O)c3ccc(Br)o3)C(C)C)n2)c1,102,103,-13,6
CCN(CC(=O)NCc1ccc2c(c1)OCO2)S(=O)(=O)c1ccc(F)cc1,100,103,-27,-6
Cc1c(C(=O)O)[nH]c2c1/C(=N/N1CC(=O)NC1=O)CC(C)(C)C2,99,103,1,8
CC(C)OC(=O)CSc1nc(N)c(C#N)cc1C#N,99,101,-6,16
O=C(NCc1ccncc1)C12CC3CC(CC(C3)C1)C2,102,107,12,1
CCCc1nnc(NC(=O)c2ccccc2)s1,104,107,.,3
O=c1ccc(-c2ccc(S(=O)(=O)Nc3ccccc3)s2)n[nH]1,103,104,-19,4
